Mtb MbtI inh = MbtI salicylate synthase inhibitors, primary screen, biochemical, fluorescence intensity | inhibition, %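 (about 17 µg/mL by stock and volumes)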 | purified MbtI enzyme, fluorescence intensity read-out | P9WFX0 | actives 0.89% (n = 100,000);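 active = above 50% in both replicates, above 80% if mildly self-fluorescent; inactive = the rest, strongly fluorescent compounds included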;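 note: 0% = mean of negative and 100% = mean of positive controls; one replicate is shown; some compounds called inactive have numbers as strong as hits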
Target sequence (P9WFX0 whole entry, looked up): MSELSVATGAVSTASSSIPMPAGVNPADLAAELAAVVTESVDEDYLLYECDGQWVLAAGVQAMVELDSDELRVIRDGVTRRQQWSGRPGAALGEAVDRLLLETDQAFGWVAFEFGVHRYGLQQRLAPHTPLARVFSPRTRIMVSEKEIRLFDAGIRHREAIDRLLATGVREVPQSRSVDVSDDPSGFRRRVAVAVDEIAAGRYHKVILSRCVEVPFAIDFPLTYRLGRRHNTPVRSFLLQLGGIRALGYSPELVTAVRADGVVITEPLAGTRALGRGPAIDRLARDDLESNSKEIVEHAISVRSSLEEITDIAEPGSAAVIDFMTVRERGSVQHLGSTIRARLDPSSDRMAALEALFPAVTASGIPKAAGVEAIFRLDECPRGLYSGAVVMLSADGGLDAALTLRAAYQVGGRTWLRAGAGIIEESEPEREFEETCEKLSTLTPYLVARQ
MenB inh = M. tuberculosis MenB inhibitors, primary screen, biochemical, absorbance; MenB enzyme assay, absorbance read-out; some hits fall short of the stated cut; AID 540299, 2011; actives 0.43% (n = 100,000); inhibition, %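 (about 12 µg/mL by stock and volumes)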; 1,4-dihydroxy-2-naphthoyl-CoA synthase (Mycobacterium tuberculosis (strain ATCC 25618 / …;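 active = mean of two replicates above 30%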;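 note: 0% = no compound and 100% = wells with inactive enzyme; the first replicate is given; strong numbers were not always called active; inactives centre near -10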
PV pol inh = poliovirus RdRp elongation inhibitors, primary screen, biochemical, fluorescence polarization, total intensity | actives 0.66% (n = 150,000) | AID 588519, 2011 | poliovirus polymerase elongation; active compounds read low | % elongation, % (compound at 16.7 µg/mL); in the data active = % elongation below about 90%; note: some results filed as inactive read as strong as hits
Target sequence (P03300 1749-2209 limits assumed): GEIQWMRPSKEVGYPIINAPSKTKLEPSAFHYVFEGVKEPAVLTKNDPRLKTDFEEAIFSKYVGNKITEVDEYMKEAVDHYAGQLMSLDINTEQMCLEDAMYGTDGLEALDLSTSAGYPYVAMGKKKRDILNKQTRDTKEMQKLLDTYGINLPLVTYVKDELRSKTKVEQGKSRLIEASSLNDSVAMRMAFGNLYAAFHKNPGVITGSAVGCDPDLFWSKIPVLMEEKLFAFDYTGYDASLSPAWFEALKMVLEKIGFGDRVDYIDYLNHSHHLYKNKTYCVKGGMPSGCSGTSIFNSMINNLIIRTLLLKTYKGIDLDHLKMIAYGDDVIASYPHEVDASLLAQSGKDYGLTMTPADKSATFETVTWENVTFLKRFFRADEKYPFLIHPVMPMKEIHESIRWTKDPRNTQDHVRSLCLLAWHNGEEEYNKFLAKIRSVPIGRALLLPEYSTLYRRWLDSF
PV pol inh intensity = also measured in PV pol inh; calls as there; % elongation; measured here: total intensity read-out; formula for this scale not given here;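 total fluorescence in place of polarization; lower means less elongation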
* hit, by the source's call; i = inactive; / = not tested or not shown.

mol	Mtb MbtI inh	MenB inh	PV pol inh	PV pol inh intensity
O=S(=O)(NCc1ccccn1)C1=Cc2ccccc2CC1	6	-12	106	107
COc1ccc(-c2c(C)nn3c(N4CCC(C)CC4)cc(C)nc23)cc1OC	-4	-11	100	103
O=C(CNC(=S)N1CC2CC(C1)c1cccc(=O)n1C2)N1CCCC1 (stereo not drawn)	-12	-38	100	97
O=C(CSCc1cc(=O)[nH]c(=O)[nH]1)NCc1ccc(Cl)cc1	-4	8	91	105
O=C1Nc2ccccc2SC1Nc1ccc(-c2nnc3n2CCCCC3)cc1 (stereo not drawn)	-1	0	98	104
COC(=O)c1ccc(CS(=O)(=O)c2ccccc2C)o1	8	-17	101	99
NC1=NN=C2CCCN3C(=C12)C=Cc1ccccc13	2	-20	102	103
O=c1oc2ccccc2cc1-c1nnc(-c2cccc(Br)c2)o1	27	-1	99	99
O=C1C=CC(=O)N1CCc1ccc(Cl)cc1	100*	-7	101	99
CCOC(=O)N1CCN(C(=O)CNC(=O)c2cc(C)cc(C)c2)CC1	3	11	98	101
CN(C(=O)CSc1nc2ccccc2c(=O)n1-c1ccc(F)cc1)C1CCS(=O)(=O)C1 (stereo not drawn)	-2	-3	106	104
COc1cccc(C2=NOC(C(=O)N3CCCCC3)C2)c1 (stereo not drawn)	1	-12	103	104
[O-]/[N+](=C\c1ccncc1)c1ccccc1	34	-6	102	104
CC(C)(CC(=O)O)CC(=O)N1CCN(c2ncccc2C#N)CC1	2	-18	104	102
O=C1CCCCC1Sc1nnc(-c2ccc3c(c2)OCO3)o1 (stereo not drawn)	-106	-29	106	110
COC(=O)C1=C(C)NC(C)=C(C(=O)OC)C1C	-23	-18	106	96
O=C(NCCN1CCOCC1)C1CCCN1S(=O)(=O)c1ccc(Cl)cc1 (stereo not drawn)	-7	-17	102	119
O=C(c1ccccc1)N1CCC(c2ccncc2)CC1	-4	11	100	103
Cc1c(-n2c(O)c(C3=c4ccccc4=NC3=O)sc2=O)c(=O)n(-c2ccccc2)n1C	-14	9	100	100
Nc1ccc(O)cn1	106	-18	100	102
CC(C)C(NS(=O)(=O)c1ccc2c(c1)OCCO2)C(=O)OCc1cn2cc(Cl)ccc2n1 (stereo not drawn)	-25	-13	103	104
N#Cc1cccc(NC(=O)Cc2ccccc2)c1	-6	-17	101	103
COC(=O)NCC(c1ccc2c(c1)OCO2)N1CCN(c2ccccc2)CC1 (stereo not drawn)	-9	-11	99	107
COc1ccccc1NC(=O)CN1c2cccc3cccc(c23)S1(=O)=O	103	-11	102	105
NS(=O)(=O)c1ccc(CCNC(=O)c2ccc(Cl)cc2)cc1	-5	-18	99	102

Next results.
mol	Mtb MbtI inh	MenB inh	PV pol inh	PV pol inh intensity
CC(C)CN(C(=O)CSc1nc(N)cc(N)n1)C1CCS(=O)(=O)C1 (stereo not drawn)	10	-5	105	113
CCOC(=O)c1c(/N=C/c2c(O)n(C)c3ccccc23)sc(C)c1C	8	-5	100	122
Cc1c(Cl)ccc2c1NC(=O)C2(O)N1CCCC(C)C1 (stereo not drawn)	-6	-23	99	101
Nc1ccccc1Oc1ccc2ccccc2c1	2	/	105	103
CC(=O)NC1CCSC1=O (stereo not drawn)	-9	5	101	101
COc1cc(C(=O)CSc2ccc(C)cc2)cc(OC)c1OC	6	-2	95	106
O=C(OCCN1C(=O)c2ccccc2C1=O)c1cc2ccccc2oc1=O	-16	-18	98	101
O=C(/C=C/c1ccc(Br)o1)NC1=NCCS1	2	/	104	96
FC(F)(F)c1cccc(N2CCN(C3=Cc4ccccc4CC3)CC2)c1	-6	-7	105	111
O=C(N/N=C/c1ccncc1)C1CCCCC1	10	-25	103	102
CC(NC(=O)CN(C)C1CCS(=O)(=O)C1)c1ccccc1 (stereo not drawn)	-18	-18	108	118
CCCOC(=O)Cc1n[nH]c(=O)[nH]c1=O	-7	-5	103	100
CCc1ccc(S(=O)(=O)N2CCn3cccc3C2c2ccc(OC)c(OC)c2)s1 (stereo not drawn)	1	-46	108	104
Cc1nc2ccc(Cc3ccc4nc(C)[nH]c4c3)cc2[nH]1	-6	17	98	105
CCc1ccc(C(=O)NC(C)C2CCCO2)s1 (stereo not drawn)	1	-7	103	101
c1ccc(-c2nc3c4ccccc4ccn3c2CN2CCOCC2)cc1	i	-15	102	108
Brc1ccc2c3c(ccc2c1)OCN(c1ccccc1)C3	11	-35	102	106
CCCS(=O)(=O)c1nc(S(=O)(=O)c2ccc(Cl)cc2)c(N2CCC(O)CC2)s1	-1	6	101	102
CN1N=C(C(C)(C)C)CSC1=Nc1ccc(F)cc1	22	15	100	96
Cn1c(=O)cc(Cl)c2ccccc21	21	8	100	101
Cc1[nH][nH]c(=O)c1N=Nc1ccccc1	0	-119	101	99
Cc1ccc(CNc2nc(C)c3nc(-c4ccccc4)oc3n2)cc1	124	14	101	104
O=C(CSc1ncnc2sccc12)N1CCC(c2nc3ccccc3o2)CC1	-9	-22	108	108
OCc1cn(-c2ccccc2)nc1-c1cccs1	-57	/	104	107
COC(=O)CN1C(=O)CSc2ncccc21	9	-11	103	99

The list goes on:
mol	Mtb MbtI inh	MenB inh	PV pol inh	PV pol inh intensity
Cn1c(COc2ccc(C(C)(C)c3ccccc3)cc2)n[nH]c1=S	/	-26	103	109
CC1=C(C(=O)Nc2ccc(Cl)cc2C(=O)N2CCN(c3ccccc3)CC2)SCCO1	4	-13	105	104
NC(=O)C1=C(N)NC(=S)NC1c1ccccc1 (stereo not drawn)	14	-10	96	92
NNc1nc2ccccc2[nH]c1=S	63	i	107	114
CCOC(=O)N1CCN(C2CC(=O)N(c3ccc(I)cc3C)C2=O)CC1 (stereo not drawn)	10	-34	104	104
O=C(N/N=C/c1ccc(-c2ccc(S(=O)(=O)Nc3ncccn3)cc2)o1)c1cccnc1	105	-5	97	102
O=C(COC(=O)c1c[nH]c(=O)[nH]c1=O)Nc1ccccc1	-1	3	101	103
CC(C)(C)C(=O)/C=C/Nc1ccc(C(=O)O)cc1	-7	-23	101	103
O=C(/C=C/c1cc(Cl)c2c(c1)OCCCO2)Nc1ccc(-n2cnnn2)cc1	-6	-33	98	94
COc1ccc2oc(CS(=O)c3ccccc3)c(C(=O)O)c2c1 (stereo not drawn)	-2	2	103	105
Cc1cc(C(F)(F)F)nc2sc(C(=O)Nc3ccc(C(N)=O)cc3)c(N)c12	/	-18	95	142
Cc1ccc2c(Cl)c(C(=O)N3CC(C)OC(C)C3)sc2c1 (stereo not drawn)	-3	-18	102	107
Cn1c(=O)c2cc(S(=O)(=O)NC(C(=O)NC3CCCCCC3)c3ccccc3)ccc2n(C)c1=O (stereo not drawn)	0	11	103	102
CCOC(=O)N1CCN(Cc2ccc(O)c(OC)c2)CC1	-4	-17	97	103
O=C(O)CN1CC(=O)Nc2ccccc21	66	-33	102	102
CSc1nc(N)nc(SCC(=O)Nc2ccccc2)c1C#N	/	-20	106	112
O=C(O)[C@@H]1CCCN1Cc1ccccc1	/	-14	111	111
C=C1c2cc(C)cc(C)c2NC(=O)N1CC	/	-35	99	104
O=C(NC(OCc1ccccc1)C(=O)c1ccccc1)c1ccccc1 (stereo not drawn)	/	1	100	103
O=C(Oc1ccccc1)c1ccc(-n2cnnn2)cc1	-3	3	100	102
COc1ccccc1OCC(=O)NCCCn1ccnc1	-8	-27	104	95
COCCn1c(C)cc(C(=O)COC(=O)c2cc3c(s2)CCCCC3)c1C	-14	-25	100	102
CC1CCC(C(C)C)C(OC(=O)NC(=O)C(F)(F)F)C1 (stereo not drawn)	-5	-6	102	108
O=C(O)c1ccc2nsnc2c1	/	-15	96	100
Cc1cc(C)cc(NC(=O)CCCn2c(=O)c3cccn3c3cccnc32)c1	-9	0	103	104

Later entries.
mol	Mtb MbtI inh	MenB inh	PV pol inh	PV pol inh intensity
CCOc1cc(CCC(=O)O)on1	3	-2	101	100
O=C(NCc1ccncc1)C1c2ccccc2Oc2ccccc21	-4	1	98	100
CSc1ccccc1C(=O)NC1CC(C)(C)NC(C)(C)C1	0	8	101	102
CCCNC(=O)c1cc(S(=O)(=O)N2CCCCC2)c[nH]1	-15	0	99	102
CCCCNC(=O)Cn1c(-c2ccc(C)cc2)noc1=O	-4	-26	102	102
COc1ccc(-n2c(C)nc3cc(C(=O)O)ccc32)cc1	-12	-7	103	103
COc1ccc(/C(O)=C(/C#N)c2nc3ccccc3c(=O)[nH]2)cc1	-5	3	101	100
CCC(=O)Nc1ccc(C(=O)OCC(=O)C(C)(C)C)cc1	-14	-20	100	104
CCN1C[C@]2(OC(=O)c3ccccc3NC(C)=O)CC[C@H](OC)[C@@]34C2C[C@@H]([C@@H]13)[C@@]1(O)C[C@H](OC)[C@H]2CC4[C@]1(O)[C@H]2OC (stereo partly drawn)	190	9	100	102
Clc1cccc(N2CCN(c3nnc4n3CCCCC4)CC2)c1	0	13	102	104
COC(=O)c1c(O)cc(=O)n2c1CCCCC2	12	-144	104	99
COc1ccc(CCCC(=O)NN=Cc2ccco2)cc1	20	-25	103	99
Cc1[nH]c(=O)[nH]c(=O)c1NC(=O)c1ccccc1	0	-20	100	104
O=C(O)CSc1ncnc2ccccc12	/	-12	105	109
O=C(O)c1ccccc1SCC(=O)N1CCN(Cc2ccccc2)CC1	5	-9	108	102
N#CC1=CN(Cc2ccccc2)C=C(C=Nc2ccccc2)C1	-3	-127	116	125
CSc1ncc(C(=O)Nc2ccccc2N2CCN(C)CC2)n1-c1ccccc1	11	-32	98	95
COC(=O)CN(c1cccc2ccccc12)S(C)(=O)=O	-54	-2	103	105
Cc1[nH]c(=O)[nH]c(=O)c1S(=O)(=O)N1CCN(c2ccccc2)CC1	-3	5	102	105
COc1ccc(C(=O)NCCc2cc3c(OC)ccc(OC)c3[nH]c2=O)cc1	2	6	100	103
CC(C)N(c1ccccc1)c1ccc(NC(=O)C2CCC2)cc1	20	-2	99	103
O=S(=O)(NCCc1ccccc1)c1ccc(S(=O)(=O)N2CCCCC2)cc1	-2	-35	105	101
Nc1cc(=O)[nH]c(=S)n1-c1ccc(Cl)cc1	4	-13	102	102
CC1=Nn2c(nc3sc(-c4ccccc4)cc3c2=O)SC1	7	8	101	101
Cc1cc(NC(=O)c2ccc(Br)o2)nc2c1c(=O)oc1ccccc12	11	12	99	101

Further entries follow:
mol	Mtb MbtI inh	MenB inh	PV pol inh	PV pol inh intensity
CCOC(=O)CSc1nc2c(sc(=S)n2-c2ccccc2C)c(=O)n1-c1ccc(F)cc1	-2	-34	104	99
COc1ccc(-n2cc(-c3ccc(OC)c(OC)c3)[nH]c2=O)cc1	-2	-18	105	107
Cc1cc(N/C(=N\S(=O)(=O)c2ccc(F)cc2F)c2ccccc2)no1	-7	-7	107	115
Cc1ccc2n1CCNC2C(C)C (stereo not drawn)	89	15	101	102
C#CCN1CCc2cc(OC)c(OC)cc2C1C (stereo not drawn)	41	30	100	101
CCCCN=c1scc(-c2ccco2)n1/N=C/c1c[nH]c2ccccc12	-7	-43	103	102
CNS(=O)(=O)c1ccc(C)c(-c2nnc3c4ccccc4c(C)nn23)c1	15	4	102	100
CC12CC3CC(C1)CC(C(=O)O)(C3)C2	-3	/	105	103
CS(=O)(=O)NN1C(=O)c2ccccc2NC12CCCCC2	i	-12	101	106
NC(=O)c1ccc(NC(=O)C2CCCCC2)cc1	6	-3	103	102
Cc1ccc2c(=O)cc(C(=O)N(Cc3ccccc3)Cc3ccco3)oc2c1	4	-15	103	101
O=C(NC1CCS(=O)(=O)C1)c1ccccc1Cl (stereo not drawn)	-12	/	104	108
Cc1ccc(CNC(=O)c2cc3sccc3n2C)cc1	-3	-30	107	100
COC(=O)CCn1c(=O)c2cccn2c2cccnc21	87	-13	102	101
Clc1cccc(CNNc2nc(N3CCCCC3)nc(N3CCCCC3)n2)c1	-9	-7	101	102
CC1=NCCN1CCNC(=O)Nc1ccc(C(C)(C)C)cc1	-4	-4	110	111
Cc1ccc(S(=O)(=O)c2nc(S(=O)(=O)C3CCCCC3)sc2N(C)C)cc1	9	-19	104	100
COc1ccc2c(c1)C(C(C#N)C#N)c1c(nc(N)c(C#N)c1N)O2 (stereo not drawn)	64	-25	96	97
